RE007 growth inh – qHTS Assay for Inhibitors of the HIV-1 protein Vpr | 360,000 tested, 0.21% active | S. pombe RE007 Vpr strain, BacTiter-Glo ATP luminescence, 24 h; control for the full effect not named in the record | Potency, µM (highest dose often 92.2 µM), inactives show at the highest dose activity change, negative = less growth | AID 651644, 2012; active = well fitted falling curve with a large enough effect; inconclusive = small, poorly fitted or top-dose-only effect; inactive = no such curve, though single readings can be large or run the other way;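 note: % is set by controls: 0 for no effect and ±100 for the full control effect; nearly all actives have a fitted effect of over 50% in size; the assay follows cell death caused by Vpr and the record does not say whether a fall means rescue or toxicity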
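Fission yeast RE007 carrying one integrated HIV-1 vpr copy, seeded at OD 0.01 in PMG+AL medium with 23 nL pinned compound. Grown 24 h at 30 degrees; viability read by BacTiter-Glo luminescence after 5 min.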
SARS PLpro yeast – qHTS of Yeast-based Assay for SARS-CoV PLP; S. cerevisiae expressing SARS-CoV PLpro, growth rescue; control for the full effect not named in the record; Potency, µM (series often up to 32.9 µM), without a hit: at the top dose activity, positive = growth rescue; 330,000 tested, 0.19% active; AID 485353, 2010; active means well fitted rising curve with a large enough effect; inconclusive means small, poorly fitted or top-dose-only effect; inactive means no such curve, though single readings can be large or run the other way; note: 0% is about no effect; nearly all actives have a fitted effect of over 55% in size; growth read by luminescence after 48 h
StopGo reporter – High Throughput Screening for Foot and Mouth Disease Virus Antivirals; 410,000 tested, 1.2% active; human cells with a luciferase reporter of 2A StopGo recoding; control for the full effect not named in the record; Potency, µM (series often up to 57.9 µM), inactives show at the highest dose signal change, negative = less light; active = well fitted falling curve with a large enough effect; inconclusive = small, poorly fitted or top-dose-only effect; inactive = no such curve, though single readings can be large or run the other way; tested in HEK293T cells; note: % is set by controls: 0 for no effect and ±100 for the full control effect; nearly all actives have a fitted effect of over 45% in size; luciferase light after 4 h
Cruzain inh noDet – qHTS Assay for Promiscuous and Specific Inhibitors of Cruzain (without detergent). Potency, µM, for inactives: max response, negative = inhibition, usual class: inhibitors. 200,000 tested, 2.3% active. AID 1476, 2009. purified cruzain, Z-FR-AMC fluorescence, no detergent. Cruzipain (Trypanosoma cruzi), P25779;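 note: plate controls were enzyme without inhibitor for no effect and buffer without enzyme for full effect; nearly all actives have a fitted effect of over 40% in size; top concentration of the series not given in the record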
Target sequence (P25779 123-467 limits assumed): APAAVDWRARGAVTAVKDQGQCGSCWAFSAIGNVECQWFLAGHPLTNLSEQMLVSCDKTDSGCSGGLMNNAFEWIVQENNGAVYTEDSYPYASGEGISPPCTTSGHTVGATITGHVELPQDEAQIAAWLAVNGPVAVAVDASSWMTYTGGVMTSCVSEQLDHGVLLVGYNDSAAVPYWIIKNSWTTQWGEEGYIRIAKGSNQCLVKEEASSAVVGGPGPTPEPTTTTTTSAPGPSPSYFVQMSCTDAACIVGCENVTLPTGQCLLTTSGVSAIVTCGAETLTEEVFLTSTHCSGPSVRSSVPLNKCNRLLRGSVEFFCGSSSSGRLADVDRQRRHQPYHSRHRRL
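Detergent-free condition (0.00005% Triton X-100) in acetate buffer pH 5.5 with DTT. 1.5 nM enzyme and compound were pre-mixed 15 min, then 2 uM Z-FR-AMC substrate added; reaction progress from fluorescence change between first and third reads (60 s).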
MARV entry inh – qHTS for inhibitors of binding or entry into cells for Marburg Virus; 300,000 tested, 1.8% active; Potency, µM (highest dose often 37.8 µM), for inactives: at the highest dose activity change, negative = inhibition, hits mostly inhibitors; Marburg virus pseudotyped entry inhibition, cell reporter; control for the full effect not named in the record; about a third of the inactives were read at about 46 µM; active = well fitted inhibition curve with a large enough effect; inconclusive = small, poorly fitted or top-dose-only effect, or effect the other way; inactive = flat fitted curve, though single readings scatter; tested in HEK293 cells; about a fifth of its hits are not listed in these tables; note: % is set by controls: 0 for no effect and ±100 for the full control effect; luciferase read-out
LASV entry inh – qHTS for Inhibitors of binding or entry into cells for Lassa Virus. Lassa virus pseudotype entry inhibition, cell reporter; control for the full effect not named in the record. Potency, µM (series often up to 37.9 µM), for inactives: at the top dose activity change, negative = inhibition, most hits filed as inhibitors. 300,000 tested, 1.2% active. AID 540256, 2011; active means well fitted inhibition curve with a large enough effect; inconclusive means small, poorly fitted or top-dose-only effect, or effect the other way; inactive means flat fitted curve, though single readings scatter; tested in HEK293 cells; note: % is set by controls: 0 for no effect and ±100 for the full control effect; nearly all actives have a fitted effect of over 50% in size; luciferase read-out
NS1 inh – qHTS Assay for Inhibitors of Influenza NS1 Protein Function; S. cerevisiae slowed by influenza A NS1, growth recovery by OD600; Potency, µM (doses to about 46.1 µM), for inactives: at the highest dose activity, positive = more growth; 270,000 tested, 0.4% active; AID 2326, 2010; active means well fitted rising curve with a large enough effect; inconclusive means small, poorly fitted or top-dose-only effect; inactive means no such curve, though single readings can be large or run the other way; note: nearly all actives have a fitted effect of over 50% in size
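Growth recovery, yeast-based: influenza A NS1 expressed in S. cerevisiae causes slow growth, and suppressors are detected by OD600. The parent strain without NS1 is used as positive control.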
Cruzain Triton – qHTS Assay for Promiscuous and Specific Inhibitors of Cruzain (with detergent) | AID 1478, 2009 | purified cruzain, Z-FR-AMC fluorescence, 0.01% Triton | Cruzipain (Trypanosoma cruzi), P25779 | 200,000 tested, 0.43% active | Potency, µM, for inactives: max response, negative = inhibition, hits mostly inhibitors;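 note: plate controls were neutral wells for no effect and buffer without enzyme for full effect; nearly all actives have a fitted effect of over 40% in size; top concentration of the series not given in the record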
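Cruzain (1.5 nM) preincubated 15 min at RT with compound in 100 mM sodium acetate pH 5.5, 5 mM DTT, 0.01% Triton X-100. Reaction started with 2 uM Z-FR-AMC; AMC fluorescence (ex 360/em 450 nm) change over 60 s gave rate.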
* hit, by the source's call; u = inconclusive; x = no result given; & = joins results of further samples; [ ] = dose if it differs, or a comment. Unless noted, calls come from the whole dose curve; as a rule, active = well fitted curve in the direction sought with a large enough effect; inconclusive = small, poorly fitted or top-dose-only effect, or another doubt; inactive = no such curve, though single readings can be large; an effect the other way counts as inactive or inconclusive. Potency is the fitted concentration of half-maximal effect. This is a random part of the collection. Share with any hit: about 4.8%.

The first 3 records as a preview:
structure | Cruzain inh noDet | MARV entry inh | StopGo reporter | NS1 inh | LASV entry inh | RE007 growth inh | SARS PLpro yeast | Cruzain Triton
COC(=O)[C@@]1(Cc2ccc(OC)cc2)[C@H]2c3cc(C(=O)N(C)C)n(C[C@H](O)CO)c3C[C@H]2CN1C(=O)c1ccccc1 | u | 28% | -4% | -22% | 4% | 3% | -4% | 2.0%&3.3%
COc1ccc(C2c3c(n(C)c4ccccc34)C(=O)N2CC(=O)Nc2ccc(Cl)cc2)cc1 (stereo not given) | -24% | x | u | x | -5%[46.1 µM] | x | x | -3.5%
COc1ccc(Cn2ccnc2SCC(=O)Nc2cccc(NC(C)=O)c2)cc1 | x | u | u | x | -6% | 1% | -5% | x

Results (from the top)
structure | Cruzain inh noDet | MARV entry inh | StopGo reporter | NS1 inh | LASV entry inh | RE007 growth inh | SARS PLpro yeast | Cruzain Triton
COC(=O)[C@@]1(Cc2ccc(OC)cc2)[C@H]2c3cc(C(=O)N(C)C)n(C[C@H](O)CO)c3C[C@H]2CN1C(=O)c1ccccc1 | u | 28% | -4% | -22% | 4% | 3% | -4% | 2.0%&3.3%
COc1ccc(C2c3c(n(C)c4ccccc34)C(=O)N2CC(=O)Nc2ccc(Cl)cc2)cc1 (stereo not given) | -24% | x | u | x | -5%[46.1 µM] | x | x | -3.5%
COc1ccc(Cn2ccnc2SCC(=O)Nc2cccc(NC(C)=O)c2)cc1 | x | u | u | x | -6% | 1% | -5% | x
CC(=O)c1cc2c(cc1N/C(=N/S(=O)(=O)c1ccc(Br)cc1)c1ccccc1)OCO2 | -12% | u | 34%&7%[activator] | x | 4%&3%[46.1 µM] | 8% | 4% | 0.2%
Cc1ccc(C)c(CN2C(=O)c3ccccc3S(=O)(=O)c3ccc(C(=O)N4CCCCCC4)cc32)c1 | -7% | u | 34%[activator] | x | u | x | x | -2.7%
CCCCN(Cc1ccccc1)S(=O)(=O)c1ccc2[nH]c(=O)oc2c1 | -1% | -1% | -1% | -2% | 11% | 8% | 2% | -9.0%
Nc1ccc(S(=O)(=O)NNC(=O)C(=O)NNc2ccccc2)cc1 | 0% | 1% | -5% | -12% | -8% | 314% | -6% | -3.4%
CC(C)(C)NC(=O)CSc1nc2ccccc2n1-c1ccccc1 | 1% | -14% | u | -95% | -2% | 8% | -24% | -0.7%
COc1ccc(S(=O)(=O)N2CCN(c3ccccc3OC)CC2)cc1-c1noc(C)n1 | 2% | 7%[46.1 µM] | -8% | x | 8%[46.1 µM] | x | x | -2.0%
Cc1ccc(SCC2=NN(c3nc(C)cc(C)n3)C(=O)C2)cc1 | x | -3%[46.1 µM] | -3% | x | 2% | -2% | 2% | x
O=C(COC(=O)CSc1nnc(-c2ccc(Cl)cc2)o1)Nc1cc(Cl)cc(Cl)c1 | -1% | 5%[46.1 µM] | 5% | -11% | -1% | -3% | -2% | -5.2%
COCC(C)n1c(C)cc(C(=O)CSc2nc(C)c(C)c(C)n2)c1C (stereo not given) | x | -4% | -16% | u | x | 0% | 0% | x
CC(=O)c1ccc(OCc2cc(C(=O)N3CCN4CCCC4C3)no2)cc1 (stereo not given) | x | 3% | -12% | 0% | 11% | 9% | 5% | x
CC1=C(C(=O)Nc2cccnc2)C(c2ccc(Cl)cc2)n2nc(SCc3ccccc3)nc2N1 (stereo not given) | 8% | 7%[46.1 µM] | -11% | x | 25%[46.1 µM] | x | x | -0.7%
CCCCn1c(=O)[nH]c(=O)c2c1nc(CN1C(=O)c3ccccc3S1(=O)=O)n2CCC | 25µM* | -3% | u | 17% | 18% | 5% | -7% | 1.6%
CCNc1nc(Oc2ccc(C(=O)OC)cc2)nc(N2CCOCC2)n1 | x | 2%[46.1 µM] | -9% | -5% | 0% | 0% | -1% | x
CNC(=O)c1nnsc1S(=O)c1ccc(Cl)cc1 (stereo not given) | x | u | u | x | u | 35µM* | -32% | x
O=c1[nH]c(=S)n(CCC2=CCCCC2)c(O)c1C=NCCCn1ccnc1 | -8% | -6% | -16% | 6% | -6% | -1% | -5% | -6.0%
O=C(Nc1ccc2c(c1)CCC2)c1cnc(Cl)c(Cl)c1 | x | u | 0% | x | u | 5% | -15% | x
Cn1c(SCC(=O)N2CCCC2)nc2ccccc21 | x | 11%[46.1 µM] | 21% | x | 1%[46.1 µM] | -10% | -2% | x
COc1ccc(C(OC(=O)c2ccco2)C(=O)NC2CCCCC2)cc1 (stereo not given) | -9% | -7% | -14% | 1% | -12% | -1% | 28% | -2.3%
CCc1nnc(NC(=O)c2oc3ccc(Br)cc3c2C)s1 | x | u | 27% | x | u | 2% | -10% | x
CC(C)CCn1c(SCC(=O)c2ccccc2)nc2c1c(=O)[nH]c(=O)n2C | 10% | -1% | 5% | 6% | -1% | 16% | x | 6.4%
COc1ccc(Oc2cc(C)c3cccc(C)c3n2)cc1 | 0% | 18% | -9% | -7% | -2% | u | -10% | -4.1%
Cc1ccc(NC(=O)NC2(C(=O)NCc3ccccc3)CCCCC2)cc1 | 3% | 3% | x | 1% | -12% | 3% | -2% | -9.1%
COc1cc(OC)nc(NC(=O)NS(=O)(=O)c2ccccc2Cl)n1 | x | 13%[46.1 µM] | 4% | 1% | -1% | 0% | 1% | x
CCOc1ccc(C(=O)Nc2ccc3c(c2)OCCO3)cc1[N+](=O)[O-] | x | 14%[46.1 µM] | 1% | x | -17% | -10% | 4% | x
NNC(=S)NCc1ccc2c(c1)OCO2 | -6% | u | -18% | -31% | u | -12% | u | -0.5%
Cc1ccc(C(CNC(=O)Nc2ccc(Cl)cc2)N2CCN(C)CC2)cc1 (stereo not given) | x | u | -17% | -2% | u | -1% | 1% | x
Cc1ccc(S(=O)(=O)N(C)C)cc1NC(=O)COC(=O)C1CC1 | x | -2% | -19% | x | 17%[46.1 µM] | -2% | -3% | x
CCOC(=O)CNC(=O)CNC(=O)c1nn(-c2ccc(OC)c(OC)c2)c(=O)c2ccccc12 | x | x | -3% | -2% | x | 18% | 1% | x
O=C(NCc1ccc(/C=N\NC(=O)C(=O)Nc2ccccc2Br)o1)C(=O)Nc1ccccc1 | x | x | 10% | 14% | x | -5% | -2% | x
CC(=O)c1ccc(Oc2nc(C)nc3c2oc2ccccc23)cc1 | u | x | u | x | -14%[46.1 µM] | x | x | -3.8%
COc1ccc(-c2nc(SC)n(S(=O)(=O)c3ccccc3)n2)cc1 | 2% | u | 53%[activator] | -16% | u | -6% | 1% | 1.7%
Cc1ccccc1N(C(=O)c1csnn1)C(C(=O)NC(C)(C)C)c1cccs1 (stereo not given) | x | -8%[46.1 µM] | 6% | 4% | -2% | -10% | -1% | x
O=C(N/N=C/c1ccc(O)cc1)c1nc(-c2ccccc2)n(-c2ccccc2)n1 | -8% | u | -18% | 23% | -17% | x | -29% | -6.3%
CCCN(CCC)C(=O)Cn1c2ccccc2c2nc(=O)cc(C)n21 | u | x | -11% | 8% | x | 4% | -4% | 3.4%
CC(=O)ONC(=Nc1ccccc1)c1nonc1N | x | u | 4% | 9% | -16%[46.1 µM] | 5% | 1% | x
O=C1CC(c2cccs2)c2cc3c(cc2N1)OCCO3 (stereo not given) | -10% | u | x | -15% | u | -6% | -3% | -0.4%
CCN(CC)CCNC(=O)C1CCCN(c2ncnc3onc(C)c23)C1 (stereo not given) | -27% | x | -10% | x | 25%[46.1 µM] | x | x | -1.6%
COc1ccc(CC(=O)Nc2cc(S(=O)(=O)N3CCCCC3)ccc2C)cc1OC | x | u | u | x | u | 4% | 6% | x
CC(=O)N1CCN(CC(=O)Nc2ccc(C)c(S(=O)(=O)N(C)C)c2)CC1 | x | u | 11% | 4% | -2% | -6% | -2% | x
Cc1c(=O)n(OCc2cccc(F)c2)c2ccccc2[n+]1[O-] | -4% | -7% | -5% | -4% | -21% | -37% | 2% | -9.3%
CCN(CC)C(=O)c1cccc2nc3ccccc3nc12 | x | -11% | 5% | -2% | 23% | -11% | -1% | x
COc1ccc(CC(=O)N/N=C(\C)c2ccc(Br)s2)cc1 | x | u | -1% | x | 19% | 20% | x | x
CCN1CC=C2C(C#N)=C(N)C(C#N)(C#N)[C@H](c3cccc(OC)c3OC)[C@H]2C1 | -13% | -4% | -11% | 3% | 2% | -2% | -6% | -9.7%
COc1ccc(CC(=O)OCC(=O)Nc2ccc3c(c2)OCO3)cc1 | x | 4%[46.1 µM] | 3% | x | u | -27% | 1% | x
CN(C)c1oc(COc2ccc(F)cc2)nc1C#N | -1% | u | 27% | -3% | -2% | 20% | -27% | -1.5%
O=C(CC1C(=O)NCCN1Cc1ccccc1)NCCCOc1cccnc1 (stereo not given) | x | -8% | -10% | 13% | -5% | -6% | -7% | x
CN(C)C(=O)Oc1ccc(-c2cn3cc(C(F)(F)F)ccc3n2)cc1 | -17% | -18% | 12% | 9% | 13% | 5% | 11% | -0.2%
COc1ccc(C(=O)NCCSCc2ccccc2Cl)cc1OC | x | -1% | -6% | -22% | u | 2% | -11% | x

A stretch from further up, for reference:
structure | Cruzain inh noDet | MARV entry inh | StopGo reporter | NS1 inh | LASV entry inh | RE007 growth inh | SARS PLpro yeast | Cruzain Triton
COc1ccc(CC(=O)Nc2cc(S(=O)(=O)N3CCCCC3)ccc2C)cc1OC | x | u | u | x | u | 4% | 6% | x
CC(=O)N1CCN(CC(=O)Nc2ccc(C)c(S(=O)(=O)N(C)C)c2)CC1 | x | u | 11% | 4% | -2% | -6% | -2% | x

From PubChem BioAssay
